Screening results as filed in PubChem BioAssay.
NPYLR7 ag: mosquito NPYLR7 agonism | activation, % at 10 µM | HEK293T NPYLR7/Galpha15, GCaMP6s calcium fluorescence | AID 1259423 | 270,000 compounds, 0.15% hits; in the data active = activation above about 40%;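 also: 0% = vehicle and 100% = reference agonist at the receptor; some compounds past the cut are filed as inactive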
NPYLR7 ag max-min: further read-out of NPYLR7 ag, marked with its call; activation, %; measured here: Max-Min RFU normalised activation; some inactives read as strong as hits;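 span of the calcium signal over five minutes; 0% = vehicle and 100% = native peptide agonist; compound fluorescence can raise it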
* hit, by the source's call; & = joins results of further samples.

canonical_smiles | NPYLR7 ag max-min | NPYLR7 ag
COCc1cc(N2CCN(c3ccccc3Cl)CC2)nc(SCc2ccc(C(=O)NCCN3CCOCC3)o2)n1 | 20 | 9
CC(Sc1nc(-c2ccccc2)cc(=O)[nH]1)c1ccccc1 (stereo not drawn) | 0 | 1
CCCc1ncc(C(=O)OC2CCCC2OC)s1 (stereo not drawn) | -4 | -3
COCc1cc(C)nc(OCC(=O)N/N=C\c2ccc(OCc3ccc([N+](=O)[O-])cc3)c(OC)c2)c1C#N | 10 | 11
Cc1ccc(CN2CCN(Cc3ccc(C)s3)CC2CCO)o1 (stereo not drawn) | -2&-4 | 2&-2
CCCCCCCCCc1ccc(C(=O)Nc2nnc(SCC)s2)cc1 | -9 | -3
Cc1sc(=NC(=O)c2cccc(C(F)(F)F)c2)n(Cc2ccccc2C(=O)O)c1C | 14 | 28
CSc1ccc(CNC2=NCCCN2)cc1 | 6 | 9
Nc1cc(F)c(N2CC3CCC2C3)cc1C(=O)O (stereo not drawn) | 5&-3 | 2&0
Cc1nc(CN(C)C2CCc3c(c(C(=O)N(C)C)nn3CC3CCCCC3)C2)cs1 (stereo not drawn) | 8 | 19
CCSc1nnc2n(-c3ccc(OC)cc3)c(=O)c3c4c(sc3n12)CCCC4 | 1 | 4
O=C(/C=C/c1ccc(O)cc1)c1ccc(O)cc1O | -14&2 | 2&3
NC(=O)C1CCN(C(=O)C2(c3cccc(C(F)(F)F)c3)CCCC2)C1 (stereo not drawn) | -1 | 3
Cc1cc(C)c2ccc(N)nc2n1 | -4 | -2
O=C(O)C1CSCN1 (stereo not drawn) | -10 | -5
CC(C)C(=O)OCc1cnc(-c2cccs2)o1 | -5 | -1
COc1ccccc1CN(Cc1cccnc1)Cc1ccoc1 | 1 | 3
COC(=O)[C@@H]1C[C@H](NC(=O)c2ccc(-c3ccccc3)[nH]2)CN1C | 1 | 0
COc1cccc(-n2ccn3c(C)nnc3c2=O)c1 | -10 | -1
NC1=NCC2c3ccccc3Cc3ccccc3N12 (stereo not drawn) | -11 | -5
O=C(Nc1ccc2c(c1)CCCN2C(=O)C1CC1)c1cc(Br)ccc1Cl | 4 | -3
O=C(CN(C(=O)COc1ccccc1)C1CC1)N(CCc1c[nH]c2ccccc12)Cc1ccc(Cl)c(Cl)c1 | 14 | 18
O=C(c1cc(F)ccc1C(F)(F)F)N1CCC(n2c(=O)[nH]c3ccccc32)CC1 | -4 | 0
CCc1nc2c(OCC3CCCCC3)cccn2c1N(C)C(=O)CC(C)C | 6 | 3
CN1CCC(Cc2nccc(-c3cc(C(=O)O)ccn3)n2)CC1 | -11 | -8
C=CCn1cc(/C=C(/C#N)c2ccccc2F)c2ccccc21 | 5 | 9
Cc1ccc(C)c(-n2nc(-c3ccc([N+](=O)[O-])cc3)cc2C(=O)NCCC(c2ccccc2)c2ccccc2)c1 | 6 | -1
O=C(NC1CCN(c2ccccc2C(=O)N2CCN(C3CCCCCC3)CC2)CC1)C1CC1 | 11 | 3
O=C1C2C3c4ccccc4C(c4ccccc43)C2C(=O)N1c1ccccn1 (stereo not drawn) | 65 | 23
Cc1nn(-c2ccc(N3CCOCC3)nn2)c2c1C(c1ccccc1OCc1ccccc1)CC(=O)N2 (stereo not drawn) | -4 | -3
Cc1ccc(C(C)C)c(OCC(=O)NNC(=O)/C=C/c2ccc3c(c2)OCO3)c1 | -11 | -2
Cc1ccc(CN2CCN(N=Cc3ccc(Br)s3)CC2)c(C)c1 | -8 | -3
CCc1nc(-c2ccccc2)nc(N2CCN(C(=O)c3ccco3)CC2)c1Cc1ccc(Cl)cc1 | 23 | 20
COC(c1ccc2c(c1)CN(C(=O)CSc1nc(C)cs1)CCO2)C1CCCCC1 (stereo not drawn) | 3 | 18
COc1ccccc1NC(=O)N1CCc2cc(OC)c(OC)cc2C1c1ccccc1Cl (stereo not drawn) | 7 | 16
CC(C)(C)C1CCC2(CC1)C(C(=O)c1ccc(F)cc1)C2(C#N)C#N (stereo not drawn) | 11 | 9
COC(=O)c1c(CN2CCCC(C(F)(F)F)C2)[nH]c2ncccc12 (stereo not drawn) | -8 | -8
CC(C)OC(=O)N(C)Cc1cccc(N2CCN(S(=O)(=O)c3c(Cl)cccc3Cl)CC2)c1F | 9 | 2
COCCCN(CC(=O)N(Cc1cccn1Cc1ccccc1Cl)CC(C)C)C(=O)c1ccc(Br)cc1 | -2 | -10
Cc1cc(C)cc(C(=O)Nc2cc(S(=O)(=O)N3CCOCC3)ccc2N2CCCC2)c1 | 8 | 6
COc1nccnc1N1CC(c2ccncc2)C1 | 9 | 20
CC(C)CCn1c(N2CCC(C(N)=O)CC2)nc2c1c(=O)n(C)c(=O)n2C | 4 | 5
CCOC(=O)c1ccc(NC(=O)c2sc(NC(=O)c3cccc(F)c3)c(C(=O)OCC)c2C)cc1 | 8 | 9
CN1C[C@@H]2CC[C@H](CC1=O)N2C(=O)c1cc2ccccn2n1 | 0 | 1
O=C(Cc1ccccc1)Nc1ccnn1C1CCN(Cc2cccc3nonc23)CC1 | -9 | -6
COCCNC(=O)c1cc(-c2ccccc2F)n2nc(-c3ccccc3)cc2n1 | 5&13 | -2&3
CNc1ccc(-c2cccc(C(=O)NC3CC3)c2)cn1 | 0 | 2
Cc1cccc(C(=O)NC2CCN(c3ccccc3C(=O)NCc3cccnc3)CC2)c1 | 17 | 20
Cc1cccc(-c2cc(C(=O)N3CCCC3)ccn2)c1C | 2 | 4
Cc1cc(NCCN(C)C)n2nc(C(F)(F)F)c(-c3ccccc3Cl)c2n1 | -3 | 1
S=c1cc(-c2nc3ccccc3s2)c2ccccc2[nH]1 | 2 | 4
CC(C)CN(CC(=O)N(Cc1cccn1Cc1ccccc1)C1CCCCC1)S(=O)(=O)c1cccc2ccccc12 | 21 | 20
COc1ccc(CN2CCNC(=O)C2CC(=O)NCCn2nc(C)cc2C)c(F)c1 (stereo not drawn) | -2 | 0
CSc1ccc(C(NC(=O)c2cc(F)ccc2C(F)(F)F)c2cccc(Cl)c2Cl)cc1 (stereo not drawn) | -11 | -5
CCOc1ccc(C2CC(c3cccc(C)c3)=NN2C(=O)CN2CCc3ccccc3C2)cc1 (stereo not drawn) | 8 | -1
O=C(Cn1c2ccccc2c2ncn(Cc3ccccc3)c(=O)c21)Nc1ccc(F)cc1 | 15 | 15
Cc1ccc2nc(CN(C)C(=O)c3cc(CC(C)C)on3)[nH]c2c1 | -7 | -8
O=C(Nc1ccc(SCCCC(=O)N2CCN(c3ccccc3F)CC2)nn1)C1CC1 | -3 | -2
NC(=O)c1c(SCCN2CCOCC2)sc2c(O)cc(=O)[nH]c12 | -2 | 0
Cc1ccc2c(c1)-c1c(s[s+]c1SCC(=O)c1ccccc1)C(C)(C)N2 | 9 | -3

Following part
canonical_smiles | NPYLR7 ag max-min | NPYLR7 ag
CCCN(CC(F)(F)F)C(=O)C1CCCNC1 (stereo not drawn) | -4 | -4
COc1cccc(OC)c1OCc1nc(CN(C(=O)c2ccc(F)cc2)C2CC2)cs1 | 2 | -10
CC(=O)NNc1nc(-c2cc(C)n(-c3ccc(C)cc3)c2C)cs1 | 0 | -2
COc1cc(NC(=O)N2CCN(c3nc(-c4ccc(C)cc4)nc(C)c3Cc3ccccc3)CC2)cc(OC)c1 | 1 | -6
COCCN(Cc1c(-c2ccccc2)noc1N1CCOCC1)C(=O)c1ccc(Cl)cc1 | -3 | -3
CC(=O)Nc1ccc(/C=C2\C(=O)c3c(O)ccc(Cl)c3C2C)cc1 (stereo not drawn) | 12 | 16
O=C(CN1CCOC1=O)N(CC1CCN(C2Cc3ccccc3C2)CC1)CC1CCCO1 (stereo not drawn) | 8 | 8
Cc1cc(N2CCN(C)CC2)ccc1NC(=O)C(=O)NC(C)C(C)C (stereo not drawn) | -13 | -13
COc1ccc(C(=O)NCC(=O)N2CCCC(C(=O)N(C)C)C2)cc1OC (stereo not drawn) | 10 | 16
COc1cc(NC(=O)CSc2nc(=O)n(CCO)c3c2CCC3)cc(OC)c1 | -18 | -9
Cc1cncc(C(=O)NC2CCN(C(=O)CCc3ccccc3)C2)c1 (stereo not drawn) | -1&11 | 0&15
COCCNC(=O)C(NC(=O)C1CCCC1)C1CCN(C(=O)c2ccccc2C)CC1 (stereo not drawn) | -5 | -5
CC(=O)c1sc(=Nc2ccc(C)cc2)n(CCO)c1C | -10 | -6
COc1ccccc1C(CC(=O)N1CCN(C(c2ccccc2)c2ccccc2)CC1)c1cn(C)c2ccccc12 (stereo not drawn) | -13 | -6
CCC(C)N(Cc1nc(C(=O)NC2CC2)co1)Cc1cc(OC)ccc1OC (stereo not drawn) | 4 | 15
CCN(Cc1cccc2nonc12)CC1CCCN(CCc2cccc(OC)c2)C1 (stereo not drawn) | 3 | 2
Fc1cccc(F)c1CNc1c2c(nc3ncnn13)CCC2 | 2 | 4
CN1CCN(C2CCN(C(=O)c3ccccc3)CC2)CC1C(=O)O (stereo not drawn) | -1 | -1
COc1cccc(-c2cc(C(=O)N3CCN(c4cccc(C(F)(F)F)c4)CC3)n3nc(C(C)(C)C)cc3n2)c1 | -12&18 | -13&8
CN(C)c1ccc(/C=C/C=C2/SC(=S)N(CC(=O)O)C2=O)cc1 | -7 | -5

Rewritten with two lines to a compound: 7 of the compounds above.
The line under a structure holds: NPYLR7 ag max-min | NPYLR7 ag
- O=C(Cc1ccccc1)Nc1ccnn1C1CCN(Cc2cccc3nonc23)CC1
  -9 | -6
- COCCNC(=O)c1cc(-c2ccccc2F)n2nc(-c3ccccc3)cc2n1
  5&13 | -2&3
- CNc1ccc(-c2cccc(C(=O)NC3CC3)c2)cn1
  0 | 2
- Cc1cccc(C(=O)NC2CCN(c3ccccc3C(=O)NCc3cccnc3)CC2)c1
  17 | 20
- Cc1cccc(-c2cc(C(=O)N3CCCC3)ccn2)c1C
  2 | 4
- Cc1cc(NCCN(C)C)n2nc(C(F)(F)F)c(-c3ccccc3Cl)c2n1
  -3 | 1
- S=c1cc(-c2nc3ccccc3s2)c2ccccc2[nH]1
  2 | 4

(listing goes on)
canonical_smiles | NPYLR7 ag max-min | NPYLR7 ag
O=C(c1ccc(Oc2cc(Cl)cc(Cl)c2)nc1)N1CCCC1 | -1 | -3
COC(=O)C(NC(=O)CCc1ccco1)c1cc(F)ccc1F (stereo not drawn) | 2 | 4
COCCCN(CC(=O)N1CCc2sccc2C1c1ccc(Cl)cc1Cl)C(=O)c1cccs1 (stereo not drawn) | 21 | 14
O=C(NC1CCS(=O)(=O)C1)c1sc2ccccc2c1Cl (stereo not drawn) | -2 | -2
CC1CCCC(C)N(C(=O)CCN2CCCC2=O)C1 (stereo not drawn) | 5 | 9
COc1ccccc1CN1CCn2nc(C(=O)NCc3ccccn3)cc2C1=O | 10 | 15
O=C(O)c1cc(-c2ccoc2)cc(S(=O)(=O)N2CCCC2)c1 | 6 | 5
COc1ccc(NC(=O)C2CCN(C(=O)[C@@H](Cc3ccccc3)NC(=O)Nc3cc(F)ccc3C)CC2)cc1 | -13 | -12
C=CCN(C(=O)CCc1c(C)nc(C)[nH]c1=O)c1nc2ccccc2s1 | -5 | -3
COc1ccc(CCNC(=O)Cn2ncc(Br)c(Br)c2=O)cc1 | 3 | 5
CCCOc1cccc(-c2cc3c(cc2OC)C(CO)CC(C)(C)CO3)c1 (stereo not drawn) | 10 | 4
COc1cccc(CNc2ncn[nH]2)c1OCc1ccc(Cl)cc1 | -17 | -13
COc1ccc(S(=O)(=O)c2n[nH]n3c2nc(=O)c2ccccc23)cc1 | -13 | -9
NC(=O)C1CCCCN1Cc1cc(F)cc2c1OC(c1ccsc1)OC2 (stereo not drawn) | 3 | 2
C=CCC(=O)N1CCc2ccc(NC(=O)CCc3ccc(C)cc3)cc2C1 | 2 | 5
CCN=C1SC(CC(=O)Nc2ccc(F)cc2)C(=O)N1CC (stereo not drawn) | 5 | 3
COc1ccc2c(C)nc(N3CCCC(C(=O)N4CCC(C(O)c5ccccc5)CC4)C3)nc2c1 (stereo not drawn) | -1 | 2
COc1cccc(-c2cc(C(=O)N3CCC4(CCCNC4)C3)[nH]n2)c1 (stereo not drawn) | 10 | -2
Cc1c(C(=O)N2CCOC(C(F)(F)F)C2)cnc2cc(=O)[nH]n12 (stereo not drawn) | 19 | 23
CSCC(=O)N1CC[C@H](NC(=O)NC2CCCCC2)[C@H]1C(=O)N1CCC[C@@H]1C(N)=O | -15 | -8
CCOc1cccc(CN2CCC(N3CCC(C(=O)NCC4CCCO4)CC3)CC2)c1 (stereo not drawn) | 11 | 19

Complete entries, quoted from the list:
Listed for Cc1c(C(=O)N2CCOC(C(F)(F)F)C2)cnc2cc(=O)[nH]n12 (stereo not drawn) : NPYLR7 ag max-min: 19; NPYLR7 ag: 23
Listed for COc1cccc(-c2cc(C(=O)N3CCC4(CCCNC4)C3)[nH]n2)c1 (stereo not drawn) : NPYLR7 ag max-min: 10; NPYLR7 ag: -2

An excerpt; the hit share may differ from the screen's.
